Screens deposited in PubChem by National Center for Advancing Translational Sciences (NCATS).
Vaccinia Venus = qHTS for Stage-Specific Inhibitors of Vaccinia Orthopoxvirus: Venus Reporter Primary qHTS. Vaccinia virus Venus reporter expression, fluorescence. Potency, µM (doses to about 36.5 µM), inactives show at the top dose activity change, negative = inhibition, most hits filed as inhibitors. 330,000 compounds, 0.46% hits; active means well fitted inhibition curve with a large enough effect; inconclusive means small, poorly fitted or top-dose-only effect; inactive means no such curve, though single readings can be large or run the other way; tested in A549 cells; note: nearly all actives have a fitted effect of over 30% in size; inactives centre near -10
Vaccinia mCherry = qHTS for Stage-Specific Inhibitors of Vaccinia Orthopoxvirus: mCherry Reporter Primary qHTS. Vaccinia virus mCherry reporter infection, fluorescence; about a quarter of the inactives have no number. Potency, µM (top dose mostly 36.5 µM), for inactives: at the top dose activity change, negative = inhibition, actives largely listed as inhibitors. 310,000 compounds, 0.63% hits; active = well fitted inhibition curve with a large enough effect; inconclusive = small, poorly fitted or top-dose-only effect; inactive = no such curve, though single readings can be large or run the other way; tested in A549 cells; note: nearly all actives have a fitted effect of over 35% in size; inactives centre near -10
The depositor's hits bear a star; i = inactive; ? = inconclusive; . = not tested or not shown; & = joins results of further samples; [ ] = remark or other dose. % is set by controls: 0 for no effect and ±100 for the full control effect; potency is the fitted concentration of half-maximal effect. Hits appear at their usual frequency; 0.82% or so of the library scored in one or more.

SMILES	Vaccinia Venus	Vaccinia mCherry
Cc1cc(C)c2c(-n3cccc3)c(C(=O)NCCc3ccc(Cl)cc3)sc2n1	-18%	-14%
CC1(C)CCCN(C(=O)c2coc(=O)c(Br)c2)C1	1%	-9%
Cc1ccc(NC(=O)N(O)C2CCCCC2C#N)cc1 (configuration not stated)	-2%	i
CCC(C)C(NC(=O)OC(C)(C)C)C(=O)NC(Cc1ccccc1)C(=O)OC (configuration not stated)	-25%	.
CC(C)CC(=O)N1CCN(C(=O)CCC2CCCC2)CC1	-7%	-13%
O=C(Nc1cccc(C(F)(F)F)c1)c1cc2nc(-c3ccco3)cc(C(F)(F)Cl)n2n1	-4%	-1%
NS(=O)(=O)c1ccc(CCNC(=O)CSc2ccccc2)cc1	-7%	-11%
CCC1NC(=O)c2cccnc2-n2c1nc1ccc(OC)cc1c2=O (configuration not stated)	-9%	i
CN(C)CCNc1nc2c(c(=O)[nH]c(=O)n2C)n1CCCc1ccccc1	-5%	-6%
COc1ccc(CCNC(=O)CSCc2ccc([N+](=O)[O-])cc2)cc1OC	-6%	-16%
Cc1c(C(=O)N2CCC(Cc3ccccc3)CC2)cccc1[N+](=O)[O-]	-21%	-21%
Cc1cc(C)cc(NC(=O)N2CCC(C(N)=O)(N3CCCCC3)CC2)c1	-3%	-1%
CC(C)C[C@@H](CN1CCCC1CN1C(=S)NC[C@@H]1Cc1ccccc1)N1C[C@H](Cc2ccccc2)N(CCc2ccccc2)C1=S (some centres not stated)	-9%	-8%
COCCSc1ccccc1C(=O)Nc1ccccc1C(C)C	-8%	-6%
CC(C)(c1ccccc1)c1ccc(OCCCNCCO)cc1	-28%	?
COC(=O)c1ccc(C(=O)OC)c(NC(=S)N2CCN(c3ccc(F)cc3)CC2)c1	-5%	-7%
CC1=NCCN1CCNC(=O)Nc1ccc(F)cc1	0%	-2%
Cc1ccccc1C(=O)N1CCN(c2ccc(NC(=O)c3ccc4c(c3)OCO4)cc2)CC1	-18%	i
CN(C)C(=O)c1ccc(Nc2ncnc3sc4c(c23)CCCCC4)cc1	-24%	-25%
COCCN(C(=O)COC(=O)/C(=C/c1ccccc1)NC(C)=O)c1c(N)n(Cc2ccccc2)c(=O)[nH]c1=O	-8%	-8%
Cc1nc2c(N=Nc3ccccc3F)c(N)nn2c(N)c1C#N	1%	i
CC(C)NC(=O)c1onc(CSc2cccc3ccccc23)c1C(=O)O	0%	i
CCCOc1ccccc1/C=C(\C#N)C(=O)Nc1cccnc1	-10%	-29%
COc1ccc(Cl)cc1N1C(=O)CC(Sc2ccccc2N)C1=O (configuration not stated)	-28%	?
COc1cc(/C=N/NS(=O)(=O)c2ccc(C)c([N+](=O)[O-])c2)ccc1O	-11%	-19%
COc1ccc(Nc2nc(C)cc(=O)[nH]2)c(OC)c1	-16%	i
COc1ccc(-c2nnn(CC(=O)N(CC(=O)NC3CCCC3)c3ccccc3F)n2)cc1OC	-4%	-11%
CN(Cc1nc2ccccc2n1C)S(=O)(=O)c1ccc(F)cc1	?	.
CCCCN1CCNC[C@@H]1Cc1ccccc1	-6%	-3%
NNC(=O)CSc1cccc2cccnc12	-8%	-13%
CCOC(=O)Cn1nnc(-c2cc(OC)c(OC)c(OC)c2)n1	8%	-8%
Cc1cc(=O)n(CC(=O)N2CCN(c3ccc(F)cc3)CC2)c2c1c(C)nn2C	-23%	-2%
O=C(Cn1cnc2ccccc2c1=O)NCCC(=O)Nc1ccc2c(c1)OCO2	7%	i
COc1ccc(C(=O)/C=C2/Sc3cc4c(cc3N2C)OCO4)cc1	-9%	-10%
Cc1ccc(CNC(=O)C2CCN(S(=O)(=O)N3CCC4(CC3)OCCO4)CC2)cc1	-16%	-19%
CCOC(=O)C1C(c2ccc(OC)c(OC)c2)c2c([nH][nH]c2=O)CC1(C)O (configuration not stated)	-15%	-14%
Cc1sc(N2CCN(S(=O)(=O)c3ccc4c(c3)NC(=O)CO4)CC2)nc1-c1ccccc1	-7%	-23%
COc1cccc(NC(=O)Cn2c(=O)n(CCCCC(=O)NCc3ccc4c(c3)OCO4)c(=O)c3ccccc32)c1	?	-9%
O=C(NCc1cccnc1)c1cc(C2CCCN(S(=O)(=O)c3ccccc3)C2)on1 (configuration not stated)	-9%	-4%
Cc1ccc(F)c(S(=O)(=O)NC(=O)C2(C)CCN2C(=O)C2(c3ccc(Cl)cc3)CC2)c1 (configuration not stated)	0%	0%
CCc1ccc(CNC(=O)CCn2c(=O)c3cccn3c3ccc(F)cc32)cc1	-3%	0%
CC(O)(c1ccccc1)c1nc(-c2cccc(C(=O)O)c2)cs1 (configuration not stated)	-20%	-20%
Cc1cccc(S(=O)(=O)c2cn(C)c3cc(N4CCCCCC4)c(F)cc3c2=O)c1	-7%	-9%
CCOc1cc(C2Nc3ccccc3C(=O)N2Cc2ccco2)ccc1O (configuration not stated)	-7%	19%
CCCCN(CC)C(=O)Cn1ncc2c3ccccc3n(CCC)c2c1=O	-23%&-11%	-10%
COc1cc(S(=O)(=O)NC2CCCCC2C)ccc1Cl (configuration not stated)	-16%	.
NS(=O)(=O)c1ccc(NC(=O)c2ccc3c(c2)CCN3S(=O)(=O)c2ccccc2)cc1	-21%&-12%	-20%&-23%
Cc1ccc(C(=O)NCC(=O)OCC(=O)c2c(N)n(C)c(=O)n(C)c2=O)cc1C	-8%	i
CN(C(=O)COC(=O)/C=C/c1ccccc1)C1CCS(=O)(=O)C1 (configuration not stated)	-27%	i
COc1ccc2c(Sc3ccccc3)c(C(=O)NCCN(C)C)[nH]c2c1	-26%	?
Cc1ccccc1NC(=O)C(C)OC(=O)c1ccccc1C(=O)N(C)c1ccccc1 (configuration not stated)	-11%	i
Cc1csc(=O)n1CC(=O)OCC(=O)Nc1cc([N+](=O)[O-])ccc1Cl	-8%	-12%
COc1cccc(OC)c1C(=O)NC(=O)Nc1c(F)cc(F)cc1F	4%[7.34 µM]	i[7.34 µM]
CC(=O)OC1CC(OC(C)=O)[C@]2(C)C(CC(OC(C)=O)[C@]3(C)C2CC[C@@]2(C)C(c4ccoc4)C(=O)C4O[C@]432)C1(C)C (some centres not stated)	-24%	-22%
COc1ccc(C(C(N)=O)c2ncc(C(F)(F)F)cc2Cl)cc1OC (configuration not stated)	0%	-21%
CC(=O)c1ccc(OC(C)C(=O)NCC2(N3CCOCC3)CCCCC2)cc1 (configuration not stated)	-1%	-8%
c1ccc(-c2nc(N3CCCCCC3)c3ccccc3n2)nc1	5µM*	.
Nc1[nH]c(C(=O)c2ccccc2)c(-c2ccc(Br)cc2)c1C(=O)NCCc1c[nH]c2ccccc12	-9%	-16%
O=C(NC1CC2CCCC(C1)N2C(=O)Nc1ccccc1)c1ccccc1 (configuration not stated)	4%	4%
COC(=O)c1ccccc1NC1c2ccccc2C(=O)N1c1cccnc1 (configuration not stated)	1%	3%
Further entries
SMILES	Vaccinia Venus	Vaccinia mCherry
Cc1ccc(NC(=O)CCSc2nc(-c3ccc4c(c3)OCO4)cc(C(F)(F)F)n2)cc1	8%	-4%
COc1ccc(OC/C(O)=C(\C#N)c2nc3ccccc3[nH]2)cc1	-8%	-10%
Cc1cc2ncn(S(=O)(=O)c3ccc(S(=O)(=O)N4CCCCCC4)cc3)c2cc1C	-17%	-7%
CC1CCCC(C)N1S(=O)(=O)c1ccc(NC(=O)c2ccccc2C(=O)N2CCOCC2)cc1 (configuration not stated)	2%	-7%
COc1ccc(NC(=O)c2sc(=O)n(Cc3ccc(F)c(Cl)c3)c2C)cc1OC	-11%	i
COc1ccc(NC(=O)c2cc(-c3ccc(F)cc3OC)n[nH]2)c(OC)c1	-27%	?
Cc1cccc2cc(/C=C/C(=O)c3ccco3)c(Cl)nc12	4%[7.34 µM]	i[7.34 µM]
O=C(NCCc1csc(-c2cccnc2)n1)c1ccc(Cl)cc1	-25%	-4%
c1ccc(-n2nnnc2-n2cnc3ccccc32)cc1	-12%	-14%
CN(CC(=O)Nc1ccc(F)cc1)C(=O)CCc1nc2sc3c(c2c(=O)[nH]1)CCCC3	?	?
CCNc1ccc(C(=O)OCC)cc1NC(=O)c1cccc(S(=O)(=O)N2CCOCC2)c1	-17%	-6%
Cn1nc(N)c2ncc(-c3ccc(Cl)cc3)nc21	-15%	-29%
O=C(NCc1cccs1)C1(S(=O)(=O)c2ccccc2)CC=CC1	0%	i
CC(C)(C)c1ccc(C(=O)N2CCC2(C)C(=O)Nc2cccc3ncccc23)cc1 (configuration not stated)	-18%	?
Cc1cccc(C)c1-n1ncc(C(=O)N2CCN(c3ccccc3)CC2)c1C1CCN(C(=O)OC(C)(C)C)CC1	-10%	i

Brought forward from above: 5 compounds; new compounds follow.
SMILES	Vaccinia Venus	Vaccinia mCherry
CCNc1ccc(C(=O)OCC)cc1NC(=O)c1cccc(S(=O)(=O)N2CCOCC2)c1	-17%	-6%
Cn1nc(N)c2ncc(-c3ccc(Cl)cc3)nc21	-15%	-29%
O=C(NCc1cccs1)C1(S(=O)(=O)c2ccccc2)CC=CC1	0%	i
CC(C)(C)c1ccc(C(=O)N2CCC2(C)C(=O)Nc2cccc3ncccc23)cc1 (configuration not stated)	-18%	?
Cc1cccc(C)c1-n1ncc(C(=O)N2CCN(c3ccccc3)CC2)c1C1CCN(C(=O)OC(C)(C)C)CC1	-10%	i
CCc1c(C)c(C#N)c2nc3ccccc3n2c1NC	-12%	-8%
c1ccc(CN2CCC(Nc3nc(-c4cccnc4)nc4ccccc34)CC2)cc1	13µM*	?
CCOC(=O)N1CCN(S(=O)(=O)c2ccc(OC)c(Cl)c2)CC1	-14%	-1%
O=C(CSc1ccccn1)N/N=C/c1ccccc1[N+](=O)[O-]	-14%	-24%
C/C=C1\COC(C(=O)NCc2ccncc2)(C(F)(F)F)C=C1C=C1CCCCC1 (configuration not stated)	-17%	i
O=C1CN(c2nc3ccccc3n3cnnc23)CC(=O)N1CCc1ccccc1	-6%	-28%
COc1ccc(NS(=O)(=O)c2ccc(Cl)c(N)c2)cc1Br	-17%	?
CCOc1c(Cl)cc(/C=N/NC(N)=S)cc1OC	?	?
COc1cc(CNCc2ccccn2)ccc1OCc1cccc(Cl)c1	-13%	-2%
O=C(NCCc1ccccc1)c1ccc(NC(=O)C2CCCCC2)cc1	-9%	i
COc1ccc(CN2CCOCC2)cc1OC	0%	.
Cc1cc(OCC(=O)NCCN2CCOCC2)cc(C)c1Br	-24%	.
Cn1c(=O)c2c(nc(NCc3ccc4c(c3)OCO4)n2Cc2ccccc2F)n(C)c1=O	17%	.
CC(=O)N1CCN(c2ccc(NC(=O)c3ccc(N4CCCC4)c([N+](=O)[O-])c3)cc2Cl)CC1	-14%	?
CCCCn1c(SCc2c(C)noc2C)nc2cc(S(N)(=O)=O)ccc21	-10%	.
COc1ccc(-c2csc(NC(=O)Cc3ccccc3F)n2)cc1OC	?	-11%
COc1ccc(NC(=O)CS(=O)(=O)c2cn(CC(=O)N3CCOCC3)c3ccccc23)cc1	-8%	i
C/C(=N/Nc1nc(-c2ccc(Cl)cc2)cs1)c1cccs1	-9%	-6%
COCCNC(=O)Cn1nc(-c2ccc(Cl)cc2)c2ccccc2c1=O	-14%	i
Cc1ccc(Nc2n[nH]c(=S)s2)cc1F	-8%	i
COCC(C)NC(=O)CSc1nc2ccccc2c(=O)n1CCc1ccc(S(N)(=O)=O)cc1 (configuration not stated)	-6%	-14%
Cc1ccc(-n2c(=O)c3c(C)c(C)sc3n(Cc3cc(=O)n4ccccc4n3)c2=O)cc1C	-8%	-4%
Cc1ccccc1CN1CCN(CC(=O)NCc2ccccc2)CC1	-14%	-17%
COc1ccc(C(=O)NC2CC(C)(C)Cc3occc32)cc1 (configuration not stated)	-7%	i
COc1cccc(NS(=O)(=O)c2ccc3[nH]cc(C(=O)NC4CCCCC4)c(=O)c3c2)c1	-14%	-23%
CC(C)[C@H](NC(=O)NCCc1ccc(F)cc1)C(=O)O	-12%	.
CCCn1c(N)c(N(CCOC)C(=O)c2ccc(F)cc2)c(=O)[nH]c1=O	-9%	-2%
Cc1cccc(N2C(=O)N(Cc3cccc(C#N)c3)c3ccccc3S2(=O)=O)c1	4%	11%
N/C(=N\OC(=O)CC1CCCCC1)c1ccc([N+](=O)[O-])cc1	-15%	-15%
CCOc1cc(CNc2ccc(O)cc2)cc(Cl)c1OCc1ccccc1	-2%	7%

Rewritten with values under each structure: part of the list above
Second line of a record – Vaccinia Venus	Vaccinia mCherry
- Cc1ccc(-n2c(=O)c3c(C)c(C)sc3n(Cc3cc(=O)n4ccccc4n3)c2=O)cc1C
 : -8%	-4%
- C/C(=N/Nc1nc(-c2ccc(Cl)cc2)cs1)c1cccs1
 : -9%	-6%
- N/C(=N\OC(=O)CC1CCCCC1)c1ccc([N+](=O)[O-])cc1
 : -15%	-15%
- COc1ccc(-c2csc(NC(=O)Cc3ccccc3F)n2)cc1OC
 : ?	-11%
- CC(C)[C@H](NC(=O)NCCc1ccc(F)cc1)C(=O)O
 : -12%	.

The results go on:
SMILES	Vaccinia Venus	Vaccinia mCherry
C=CCOc1c(Br)cc(/C=C2/C(=O)ON=C2C)cc1OC	-18%	-8%
CCCOc1ccc(/C=C2/C(=O)ON=C2C)cc1OCC	-4%	-9%
CCC(=O)NCCc1nc2ccccc2n1CC(=O)c1ccccc1	-3%	i
Cc1ccc(NS(=O)(=O)c2ccc(C)c(NC(=O)COc3ccccc3)c2)c(C)c1	-13%	-20%
O=C(/C=C/c1cccs1)c1ccco1	-9%	-23%
COC(=O)c1ccc(Oc2c(C)oc3cc(OCc4cnn(-c5ccccc5)c4)ccc3c2=O)cc1	3%	-7%
CCOc1ccccc1C1CC(=O)NC(SCC)=C1C#N (configuration not stated)	0%	-5%
